TRPV1 potentiator: enhances activation of the human vanilloid receptor TRPV1; potentiation, % at 8.33 µM; AID 540277; TRPV1-expressing cells, Fluo-8 calcium influx, capsaicin EC20 potentiation; host cell line not named in the record; control for the full effect not named in the record; Q8NER1; 320,000 compounds, 0.02% hits; active means potentiation above 80%; inconclusive means 30% to 80%; inactive means below 30%; also: 0% is about no effect
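Cells expressing TRPV1 were dye-loaded with Fluo-8 and read kinetically: 10 s baseline, 3 min after compound (agonist portion), then 2 min after EC20 capsaicin (allosteric enhancer portion). Calcium-bound dye fluorescence at 480/520 nm.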
TRPML1 blocker: blocks the human TRPML1 channel; Q9GZU1; AID 624415; activity change, negative = inhibition, % (no concentration beside the values); TRPML1-inducible cells, Ca2+ dye fluorescence, FDSS; stronger effect = lower value; inhibition of EC80 agonist-evoked calcium signal; 390,000 compounds, 0.02% hits; in the data active means activity change below about -50%; inconclusive means about -30% to -50%; inactive means above about -30%;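 also: stimulus is agonist 54-4 at its EC80 concentration; % is scaled to controls: 0 for no effect and ±100 for the full control effect; compound concentration not given in the record; the text of the record puts the active cut at -80%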
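Tet-induced TRPML1-DL cells loaded with Ca8 no-wash calcium dye were read kinetically on FDSS. Compound addition was followed by EC80 agonist 54-4 (4 uM final); inhibition was read over 110 s.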
TRPML1 ag: activates the human TRPML1 channel | Q9GZU1 | TRPML1-expressing cells, Ca2+ dye fluorescence, FDSS; host cell line not named in the record; reference of the full effect not given here | activation, % (concentration not given with the values) | 410,000 compounds, 0.12% hits | AID 624414; in the data active = activation above about 50%; inconclusive = about 30% to 50%; inactive = below about 30%; also: 0% is about no effect; the text of the record puts the active cut at 80%
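Tetracycline-induced TRPML1-DL cells are seeded and incubated overnight before loading with a no-wash Ca2+ dye and quencher. Agonist activity is taken from the 110 s fluorescence read following compound pin-transfer on an FDSS, before EC80 54-4 challenge.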
Six1-Eya2 inh: blocks human Six1 binding to Eya2. Q15475+O00167. AlphaScreen GST-Six1/His-Eya2 binding, biochemical; stronger effect = lower value; control for the full effect not named in the record. activity change, % (no concentration beside the values). 360,000 compounds, 0.56% hits. AID 651725; in the data active = activity change below about -65%; inconclusive = about -30% to -65%; inactive = above about -30%; also: % is scaled to controls: 0 for no effect and ±100 for the full control effect
Target sequence (O00167 whole entry, looked up): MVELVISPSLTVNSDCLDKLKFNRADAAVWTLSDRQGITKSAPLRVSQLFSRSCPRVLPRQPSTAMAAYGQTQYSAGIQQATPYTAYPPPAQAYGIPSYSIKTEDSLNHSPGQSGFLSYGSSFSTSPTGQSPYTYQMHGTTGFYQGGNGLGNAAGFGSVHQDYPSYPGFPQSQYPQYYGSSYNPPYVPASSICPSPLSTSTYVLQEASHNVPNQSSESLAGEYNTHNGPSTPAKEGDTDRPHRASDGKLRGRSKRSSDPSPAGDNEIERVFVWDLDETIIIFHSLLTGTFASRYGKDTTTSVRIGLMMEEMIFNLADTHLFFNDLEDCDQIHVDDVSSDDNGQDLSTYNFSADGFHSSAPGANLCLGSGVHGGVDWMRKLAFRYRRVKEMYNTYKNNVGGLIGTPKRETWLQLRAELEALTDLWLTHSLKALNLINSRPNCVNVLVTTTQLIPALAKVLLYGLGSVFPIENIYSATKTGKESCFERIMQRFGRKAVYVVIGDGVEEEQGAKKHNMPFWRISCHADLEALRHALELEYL
Target sequence (Q15475 whole entry, looked up): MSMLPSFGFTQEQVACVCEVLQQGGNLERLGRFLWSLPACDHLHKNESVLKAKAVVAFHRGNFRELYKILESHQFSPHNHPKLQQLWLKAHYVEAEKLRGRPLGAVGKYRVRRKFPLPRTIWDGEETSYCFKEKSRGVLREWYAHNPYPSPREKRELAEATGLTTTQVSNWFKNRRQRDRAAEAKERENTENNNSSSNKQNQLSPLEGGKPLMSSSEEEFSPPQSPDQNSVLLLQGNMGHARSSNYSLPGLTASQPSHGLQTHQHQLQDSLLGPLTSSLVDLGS
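Compounds are tested against tagged Six1 and Eya2 proteins bridged by glutathione donor and nickel acceptor beads; after a one-hour incubation at 37 °C without light, AlphaScreen emission is recorded.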
D2 potentiator: human D2 receptor positive allosteric modulation. DiscoveRx D2 beta-arrestin cells, luminescence, 90 min; 100% = 57 uM dopamine signal. potentiation, % (concentration not given with the values). 360,000 compounds, 0.23% hits. AID 624464; active = potentiation of 50% or more; inconclusive = 30% to 50%; inactive = 30% or less;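 also: tested on top of an EC20 dose of dopamine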
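PathHunter beta-arrestin assay in DiscoveRx D2 cells. Compounds were added with an EC20 of dopamine (50 nM final) for 90 min at 37 deg C. Luminescence was read 1 h after detection reagent, with 57 uM dopamine as the EC100 control.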
CtBP-E1A blk: CtBP/E1A binding inhibition | AlphaScreen GST-E1A/His-CtBP binding, 1536-well; stronger effect = lower value; control for the full effect not named in the record | activity change, % (concentration not given with the values) | 340,000 compounds, 0.49% hits | AID 651724; in the data active means activity change below about -65%; inconclusive means about -30% to -65%; inactive means above about -30%; also: % is scaled to controls: 0 for no effect and ±100 for the full control effect
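Protein mix (5X: 125 nM each GST-E1A, His-CtBP) was incubated with pinned compound 2 h at 37 deg C in dark, in 50 mM Tris pH 8.0 buffer with 300 mM NaCl. Glutathione donor and nickel acceptor beads followed; AlphaScreen signal read after 1 h.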
* = called active by the depositor; ? = inconclusive; nt = not tested or not shown; & = joins results of further samples. Compounds were not picked by outcome; any-hit rate near 0.95%.

SMILES	TRPV1 potentiator	TRPML1 blocker	TRPML1 ag	Six1-Eya2 inh	D2 potentiator	CtBP-E1A blk
Cc1cccc(NC(=O)C2CCCN2S(=O)(=O)c2ccc3c(c2)n(C)c(=O)c(=O)n3C)c1 (configuration not stated)	?	-6&3	-0.2&-0.5	-5	-5	0
COCCOC(=O)C1=C(C)NC(=O)NC1c1cn(-c2ccccc2)nc1-c1cccs1 (configuration not stated)	8	8	0.0	4	-3	-2
O=C(NC1CCCCCC1)C1CCN(C(=O)Cc2ccccc2)CC1	-13	14	0.0	3	-4	7
CC(=O)c1nn(-c2ccc(C(F)(F)F)cc2)c(=O)[nH]c1=O	-3	-4	-0.2	8	-1	1
Cc1ccccc1CN1CCN(CC(=O)NCc2ccco2)C1=O	12	5	0.5	-1	1	0
O=C(NCCCN1CCCC1=O)c1cc(S(=O)(=O)N2CCOCC2)ccc1Cl	4	-17	0.0	-9	-6	0
Cc1cc(NC(=O)Cn2cnc3c2c(=O)n(C)c(=O)n3C)n(-c2ccccc2)n1	2	17	-0.3	8	3	0
O=C1Nc2cc(C(=O)NCCN3CCCCCC3)ccc2S/C1=C/c1ccccc1F	nt	-10	0.1	-16	3	-4
Cc1ccc(C(NC(=O)NC(C)c2ccccc2)C(Cl)(Cl)Cl)cc1F (configuration not stated)	-4	7	4.1	13	4	8
Cc1cccc(N/N=C/c2ccc(C)s2)c1	5	18	3.0	-15	0	-23
CCOC(=O)c1cc(-c2ccco2)nc2c1c(C)nn2CCC#N	0	22	-0.1	7	-2	-4
Cc1ccc(C(=O)COC(=O)C2C3C=CC(C3)C2C(=O)OCC(=O)c2ccc(C)c(C)c2)cc1C (configuration not stated)	-13	60	0.4	10	-5	11
N#CC1=C(N)Oc2cc(N)ccc2C1c1cc(Br)cs1 (configuration not stated)	-2	14	12	-1	-2	-17
CC(C)(C)c1nnc(NC(=O)COc2ccc3c(c2)OCO3)s1	9	1	1.6	9	-23	-4
Cc1cnc(NS(=O)(=O)c2ccccc2)c(Br)c1	7	-13	0.9	3	-1	8
Cc1ccc(S(=O)(=O)N2CCOCC2)cc1NC(=O)COC(=O)/C=C/c1ccc(F)cc1	nt	5	1.4	-6	-5	-15
O=C(CN1C(=O)C2C3C=CC(C3)C2C1=O)OCC(=O)c1ccc(Cl)cc1 (configuration not stated)	1	-12	1.0	1	-17	3
COc1cc(/C=N/NC(=O)CCn2nc(C)cc2C)ccc1O	-1	-10	0.0	2	-1	-11
Cn1c(CCCNC(=O)c2ccco2)nc2ccccc21	nt	9	-0.5	1	-4	-3
CC1=C(C(N)=O)C(c2cccs2)n2ncnc2N1 (configuration not stated)	3	3	-0.5	-2	-5	3
CC(=O)Oc1ccc(Cn2c(C)c(C(=O)NCc3ccc(C#N)cc3)sc2=O)cc1	nt	nt	21	-10	-7	1
CCOC(=O)c1cnn(-c2nc(OC)cc(OC)n2)c1C(F)(F)F	9	-10	-0.3	6	-5	15
CCOCCCNC(=O)CN1C(=O)/C(=C/c2ccccc2C)Sc2ccccc21	-2	-4	0.5	20	2	40
CCCCn1c(-c2nonc2NC(=O)c2ccccc2Cl)nc2ccccc21	nt	-20	-0.9	8	-9	nt
CC(=O)Nc1ccc(S(=O)(=O)Nc2ccc(N3CCOCC3)cc2)cc1	13	-10	0.6	0	-6	-2
Cc1cc(C)n2c(NC3CCCCC3)c(-c3ccc(F)cc3)nc2n1	nt	nt	-0.9	-14	nt	0
O=C(COC(=O)c1c[nH]c(=O)[nH]c1=O)NCc1ccccc1	2	5	-0.7	5	0	1
CCN(CC)CCNC(=O)c1ccc(NC(=O)c2cn(-c3ccc(F)cc3)nc2-c2cccc(OC)c2)cc1	7	-3	-0.7	-7	-15	-11
COc1cc2nc(SCC(=O)NCCc3ccccc3)n(Cc3ccco3)c(=O)c2cc1OC	4	9	-0.4	-17	-27	-12
CC(=O)NCCC(=O)Nc1nc(C)c(Cc2ccc3c(c2)OCO3)s1	-2	-6	0.3	-1	-4	nt
CCCn1ncc(CN2CCC(n3nccc3NC(=O)c3ccccc3Cl)CC2)c1C	16	18	-0.1	8	-6	-3
COc1ccccc1CN1CC(C(=O)NCc2nc3ccccc3n2C)CCC1=O (configuration not stated)	-2	-24	1.8	-1	1	1
COc1ccc(CCNC(=O)COc2ccc(C)nc2[N+](=O)[O-])cc1OC	6	-5	0.3	2	1	-2
O=C(COc1ccc2ccccc2c1)NNC(=O)c1ccc([N+](=O)[O-])cc1	-10	27	-0.4	-1	-1	0
CC(C)NC(=O)c1ccc2nc([C@@H]3O[C@H](CO)[C@H](O)[C@H](O)[C@H]3O)[nH]c2c1	nt	nt	-0.3	3	-4	5
CC(=O)Nc1ccc(C(=O)N/C(=C\c2ccccc2)C(=O)Nc2cccc(C(=O)O)c2)cc1	20	-3	-0.4	4	-2	-1
COc1cccc(NC(=O)C2(C)CCCN(C(C)C)C2)c1 (configuration not stated)	nt	nt	-0.5	-3	1	8
Cc1cccc(C)c1NC(=O)CCCSc1nc2ccccc2s1	2	13	1.0	-3	-21	-7
Cc1ccc(C(=O)Cn2c(=N)n(CCN3CCOCC3)c3ccccc32)cc1	-1	38	-0.5	-3	-20	-1
COc1ccc(CCNCCC(c2ccccc2)c2ccccc2)cc1OC	nt	-3	-0.6	-18	-46	-11

Arranged by value in CtBP-E1A blk (low to high): 3 from the list above
Compound,TRPML1 blocker,Six1-Eya2 inh,D2 potentiator,CtBP-E1A blk
Cc1ccc(C(=O)Cn2c(=N)n(CCN3CCOCC3)c3ccccc32)cc1,38,-3,-20,-1
Cc1cc(C)n2c(NC3CCCCC3)c(-c3ccc(F)cc3)nc2n1,nt,-14,nt,0
O=C(COC(=O)c1c[nH]c(=O)[nH]c1=O)NCc1ccccc1,5,5,0,1

(next part)
SMILES	TRPV1 potentiator	TRPML1 blocker	TRPML1 ag	Six1-Eya2 inh	D2 potentiator	CtBP-E1A blk
CCOC(=O)CCCNC(=O)COC(=O)c1cc(C)cc(C)c1	-6	-3	-0.6	2	-2	2
Cc1ccc(NC(=O)C2CCCN(c3nccc(C)n3)C2)c(C)c1 (configuration not stated)	-7	-7	0.3	2	-3	-17
COc1ccc(S(=O)(=O)Nc2ccc3c(c2)n(C)c(=O)n3C)cc1C	-6	-9	0.1	2	-6	-5
OCCC1CN(C2CCC2)CCN1Cc1ccc(F)c(F)c1 (configuration not stated)	8	12	0.4	-1	-29	-17
CCn1c(SCC(=O)N2CCC(C(N)=O)(N3CCCCC3)CC2)nc2ccccc2c1=O	nt	27	-0.6	7	-1	2
CC(C)Cn1c(SCC(N)=O)nnc1-c1cccc(S(=O)(=O)N2CCOCC2)c1	nt	-6	1.5	8	-8	-1
CC1(C(=O)Nc2ccc3ccccc3c2)CCC(=O)N1CCOc1ccccc1 (configuration not stated)	nt	nt	-0.5	2	-4	-1
Cc1cc(C)cc(-n2ccnc2SCC(=O)Nc2nccs2)c1	2	12	1.1	-6	-4	-13
CCCCc1nc(SCC(=O)Nc2ccc(S(N)(=O)=O)cc2)n[nH]1	25	17&-26	0.2&-0.4	-1	-28	2
COc1c(C)cc(C(=O)C2CCCN(Cc3cnc(N4CCOCC4)s3)C2)cc1C (configuration not stated)	-10	-12	0.8	7	-19	0
Cc1ccc(-n2c(SCC(=O)NCc3ccco3)nc3nc4c(cc3c2=O)COC(C)(C)C4)cc1	0	4	-0.2	-10	-5	-10
Fc1cccc(NCc2ccoc2)c1	16	9	2.2	2	-4	3
CC(=O)c1sc(NC(=O)Cc2c(F)cccc2Cl)nc1C	-1	-6	-0.3	2	-8	2
O=C(c1ccc(OC2CCN(Cc3cccc(F)c3)CC2)cc1)N1CCCCC1	-11	15	0.5	-8	-25	-1
COc1ccc(OCc2nnc(SC(C)C(=O)Nc3nccs3)n2-c2ccccc2)cc1 (configuration not stated)	6	-1	0.2	-4	-10	8
CCOCCc1c(O)nc(SCC)[nH]c1=O	13	-17	-0.6	7	2	4
Cc1ccc(/C(O)=C2\C(=O)C(=O)N(C)C2c2ccc(F)cc2)cc1 (configuration not stated)	9	nt	nt	-1	?	nt
Cc1cccn2c(=O)c(C=O)c(N3CCN(C)CC3)nc12	11	-13	-0.7	-17	-17	6
Cc1ccc(NC(=O)Nc2c(C)[nH]c(=O)[nH]c2=O)cc1Cl	-8	-11	-0.7	24	6	3
O=C(CCCOc1ccc(Cl)cc1Cl)NNC(=O)C1CCC1	29	?	-0.2	-1	-13	-5

3 compounds drawn at random from the list so far, as already listed:
SMILES	TRPV1 potentiator	TRPML1 blocker	TRPML1 ag	Six1-Eya2 inh	D2 potentiator	CtBP-E1A blk
Fc1cccc(NCc2ccoc2)c1	16	9	2.2	2	-4	3
CC(C)Cn1c(SCC(N)=O)nnc1-c1cccc(S(=O)(=O)N2CCOCC2)c1	nt	-6	1.5	8	-8	-1
O=C(c1ccc(OC2CCN(Cc3cccc(F)c3)CC2)cc1)N1CCCCC1	-11	15	0.5	-8	-25	-1

Next section.
SMILES	TRPV1 potentiator	TRPML1 blocker	TRPML1 ag	Six1-Eya2 inh	D2 potentiator	CtBP-E1A blk
Cc1ccc(C(=O)O)cc1NC(=O)C1CCN(S(=O)(=O)c2ccc3c(c2)OCCO3)CC1	nt	9	-0.1	-5	-2	0
Cc1nc(-c2cccnc2)sc1C(=O)Nc1ccc(F)cc1F	-13	15	-0.3	6	-2	0
Cc1nn(C)cc1/C=C/C(=O)c1ccc(O)cc1	-2	10	3.3	8	-8	0
O=C(NNC(=O)c1ccc(-n2cncn2)c([N+](=O)[O-])c1)c1cccc(Cl)c1	-27	5	0.1	-5	-3	-4
O=C(Nc1ccc(Cl)cc1Cl)c1ccc(Br)o1	-4	-17	-1.1	-11	-24	5
COc1cccc(C(=O)c2c[nH]c(C(=O)NCCCN3CCOCC3)c2)c1	0	-3	0.0	-30	-14	nt
O=C(Cn1ncc2c(=O)oc3ccccc3c21)NCCC1=CCCCC1	-12	3	-1.1	0	-22	6
CCN(CC)CCCN=Cc1c(O)n(-c2cccc(C)c2)c(=O)c2ccccc12	7	-1	-0.7	-7	-25	nt
C[C@H](c1ccccc1)N1C[C@H](COCc2ccccc2)Oc2cc(N3CC[C@@H](O)C3)ccc2S1(=O)=O	nt	nt	-0.6	-8	nt	-16
COc1ccc(N2CCN(C(=O)CN(C3CCCCC3)S(C)(=O)=O)CC2)cc1	0	-20	-1.1	3	3	16
COc1ccc2c(c1)c1nc3n(c(=O)c1n2CC(=O)Nc1ccccc1)CCS3	8	-4	0.0	6	-5	nt
Cc1ccc(-n2nc3c(=O)n(CC(=O)NCc4cccs4)nc(C)c3c2C)cc1	0	-14	-0.9	2	-3	4
Cc1ccccc1-n1cc(-c2ccc(Br)cc2)nc1SCC(N)=O	4	16	1.2	-11	-8	-7
CCOC(=O)N1CCN(C(=O)CSCC(=O)Nc2nc(-c3ccc(Cl)s3)cs2)CC1	-6	-10	1.0	-2	10	-5
COc1cc(NC(=O)c2n[nH]c(=O)c3ccccc23)cc(OC)c1	-10	-21	-0.6	-9	-9	nt
FCCCOc1ccc(/C=N/OCc2ccc(Cl)cc2Cl)cc1	3	-13	3.0	57	-12	64
CC(C)(C)c1ccc(OCCC(=O)NNC(=O)c2ccncc2)cc1	15	41	0.6	7	6	0
Cc1nc(C)c(C(=O)N2CCCC(C(=O)c3ccc(Cl)cc3C)C2)s1 (configuration not stated)	8	-8	-1.2	-1	4	-2
Cc1cc(NCc2ccccn2)n2ncc(-c3ccccc3)c2n1	2	4	0.0	9	-4	0

Screening data as filed in PubChem.
